Screens deposited in PubChem BioAssay by several laboratories.
MT1-MMP act inh = MT1-MMP (human) activation inhibition | P50281 | HT1080 RFP-PRO-GFP cells, GFP/RFP ratio fluorescence, overnight; percent of plate control window, DMSO zero | GFP/RFP ratio change, % at 20 µM | hit rate 0.061% among 360,000 | AID 651647;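 active = GFP/RFP ratio change of at least 30% with cell ATP level not reduced by more than half and red fluorescence within 50% of control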; note: strong numbers were not always called active
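Test system: HT1080 cells expressing an RFP-PRO-GFP fluorescent reporter construct / Compound dosing: single-point 20 µM compound, 1% DMSO / Schedule: cells overnight before dosing, compound overnight, 37 °C, 5% CO2 / Evaluation: GFP/RFP fluorescence ratio / Control set: DMSO and RFP-L50D-GFP cell wells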
CSC inhib = blocks cancer stem cells. cancer stem cell-like cells viability, luminescence. inhibition, % at 7.5 µM. hit rate 1.1% among 300,000. AID 2717;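 active = mean at 75% or more and at least half the replicates too; inconclusive = mean and replicates disagree; tested in HMLE shEcad cells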;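 note: 0% = median of negative and 100% = median of positive control wells; the first replicate is given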
Rce1 inhib = blocks yeast Ras-converting enzyme; AID 2563; yeast membranes, quenched prenylated peptide cleavage fluorescence; hit rate 0.27% among 290,000; calls only; Q03530;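 active = fall in fluorescence gain of 50% or more versus controls, with final raw signal at or below 3038400; inconclusive = same 50% fall but final raw signal above 3038400; inactive = fall in fluorescence gain under 50%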;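 note: plate controls were neutral control wells for no effect and wells lacking membranes for full effect; tested at 10 µM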
Target sequence (Q03530 whole entry, looked up): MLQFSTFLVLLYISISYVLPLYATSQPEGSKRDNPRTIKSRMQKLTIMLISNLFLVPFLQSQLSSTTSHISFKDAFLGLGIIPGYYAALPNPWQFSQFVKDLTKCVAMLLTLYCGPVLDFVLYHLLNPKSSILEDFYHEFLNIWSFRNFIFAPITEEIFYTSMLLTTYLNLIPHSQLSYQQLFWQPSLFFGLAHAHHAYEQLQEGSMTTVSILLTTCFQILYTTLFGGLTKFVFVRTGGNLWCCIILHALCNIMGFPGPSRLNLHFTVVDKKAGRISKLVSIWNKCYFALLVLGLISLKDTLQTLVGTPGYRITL
UUG fidelity = modulators of start codon recognition fidelity in yeast | S. cerevisiae UUG-firefly luciferase reporter, luminescence/redox ratio | activity score, % at 18.7 µM | hit rate 0.13% among 350,000 | AID 602363;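 active = replicate mean at a twofold rise or more, about +100% in these data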;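 note: firefly luciferase made from a UUG start codon reports start codon fidelity; reporter light over untreated wells divided by growth signal over untreated wells; some hits fall short of that in this replicate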
Env fusion inh = blocks HIV Env-driven cell-cell fusion; inhibition, % at 12.3 µM; hit rate 1.1% among 360,000; HeLa-JRFL Env/CEM21 cell fusion, luciferase;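 active = mean replicate inhibition score of at least 50 and every replicate individually at or above 50; inconclusive = only one of the two criteria met; inactive = mean below 50 and not all replicates reaching 50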;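 note: 0% = plate neutral controls and 100% = maraviroc near 300 nM; one replicate is shown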
PABP polyA inh = PABP-poly(A) binding inhibition. P11940. PABP-poly(A) RNA binding, fluorescence polarization. inhibition, % at 35 µM. hit rate 1% among 290,000. AID 2014;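 active = 50% or more with normal probe brightness, or confirmed in later tests; inconclusive = above 50% with abnormal brightness, or retests that disagree; inactive = below 50% or failed in later tests; about a fifth of its hits are not listed in these tables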;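 note: calls also rest on retests at 20 µM and on dose response follow-up; controls were probe without protein and protein plus probe with vehicle; some compounds called inactive have numbers as strong as hits; many hits fall short of the cut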
eIF4H inh = inhibitors of RNA binding by human eIF4H | eIF4H fluorescence polarization binding assay | hit rate 0.94% among 290,000 | inhibition, % at 35 µM | Q15056;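 active = 50% or more with normal probe brightness, or confirmed in later tests; inconclusive = above 50% with abnormal brightness, or retests that disagree; inactive = below 50% or failed in later tests; about a fifth of its hits are not listed in these tables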;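 note: calls also rest on retests at 20 µM and on dose response follow-up; 0% = protein and probe with vehicle and 100% = probe without protein; strong numbers were not always called active; many hits fall short of the cut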
eIF4H inh retest = also measured in eIF4H inh; calls as there; inhibition, %; compound at 20 µM; confirmation average;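 mean of two retest wells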
PABP polyA inh retest = further read-out of PABP polyA inh, marked with its call; inhibition, %; compound at 20 µM; confirmation repeats;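 mean of two retest wells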
MT1-MMP act inh RFP = second read-out of MT1-MMP act inh, no call of its own (marks repeat the call); RFP signal change, %; measured here: RFP expression control read;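 0 = vehicle wells; hits needed this value within 50% of zero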
* = called active by the depositor; i = inactive; ? = inconclusive; . = no result given. This is a subset; rates above refer to the full screens.

SMILES	MT1-MMP act inh	MT1-MMP act inh RFP	CSC inhib	Rce1 inhib	UUG fidelity	Env fusion inh	PABP polyA inh	eIF4H inh	others
O=C(c1ccc2[nH]c(=O)c(=O)[nH]c2c1)N1CCc2ccccc2C1	-3	-1	6	i	-12	-1	18	3
Cc1ccccc1NC(=O)C(=O)NCc1ccccn1	0	5	-4	i	-21	-73	0	0
COc1ccc(-n2ncc3c2CC(C)(C)CC3NC(=O)C2CCN(C(C)=O)CC2)cc1 (configuration not stated)	-7	-5	5	i	-12	2	-7	-10
CCOC(=O)c1[nH]c(C)c(C(=O)N2CCN(C(=O)OCC)CC2)c1CC	6	-1	-5	i	10	.	-3	-9
OCCc1ccc(NCCc2cccs2)cc1	8	8	.	.	-2	-17	.	.
Cc1onc(NC(=O)c2ccc(Cl)cc2Cl)c1Br	-4	0	-9	.	.	-26	?	-8
COc1cccc(COC(=O)CCNC(=O)c2ccc(Cl)cc2)c1OC	3	1	6	i	8	-22	.	.
CCCN1CCC(=NNc2ccc(S(=O)(=O)N3CCOCC3)cc2[N+](=O)[O-])CC1	.	.	65	i	-2	-183	7	3
Cc1ccc(N2C(=O)N(CC(=O)NC(c3ccccc3)c3ccccc3)C(=O)C2C)cc1 (configuration not stated)	2	-5	-4	i	-3	.	-4	11
CC(C)(Oc1ccc(Cl)cc1)C(=O)Nc1ccc2oc(-c3ccncc3)nc2c1	5	-9	-5	i	-4	.	3	1
O=C(Cc1cccc2ccccc12)NNC(=O)Nc1ccc(Cl)cc1	1	-2	8	i	-10	-10	-6	-3
Cc1nc2ccc(Br)cn2c1C(=O)N/N=C\c1ccccc1Cl	1	4	2	i	-11	9	-6	-4
CC1(C)CC2CC(C)(CN2C(=O)CN2C(=O)c3ccccc3C2=O)C1 (configuration not stated)	8	5	-11	i	-38	?	-11	5
Cc1cc(NCc2ccccn2)n2ncc(-c3ccc(Cl)cc3)c2n1	1	-5	59	i	-34	-42	-10	-3
CCOC(=O)CC(NC(=O)Cn1nnc(-c2ccccc2C)n1)c1ccc(OC)cc1 (configuration not stated)	.	.	7	i	.	.	3	-2
Cn1ccc2c(/C=C/c3ccc(F)cc3)cc3c(c21)C1CCC3O1 (configuration not stated)	0	-5	.	.	-14	35	.	.
Cc1nc2c(C(=O)NCc3ccc4c(c3)OCO4)cnn2c(C)c1Cc1ccc(F)cc1Cl	-4	-6	-3	i	-8	5	-9	-9
CN(CC(=O)Nc1ccc(Cl)cc1)C(=O)c1ccc(S(=O)(=O)Nc2ccccc2)cc1	1	3	23	i	-4	.	.	.
COc1ccc(N(CCC#N)C(=O)/C(C#N)=C/c2cccs2)cc1	-2	-3	-2	i	.	7	-4	-7
Cc1nc(SCC(=O)NCC2CCCO2)c2c(C)c(C)sc2n1 (configuration not stated)	3	2	4	.	7	.	.	.

3 compounds out of the list, ordered by molecular weight, descending:
SMILES	MT1-MMP act inh	MT1-MMP act inh RFP	CSC inhib	Rce1 inhib	UUG fidelity	Env fusion inh	PABP polyA inh	eIF4H inh	others
O=C(Cc1cccc2ccccc12)NNC(=O)Nc1ccc(Cl)cc1	1	-2	8	i	-10	-10	-6	-3
CC1(C)CC2CC(C)(CN2C(=O)CN2C(=O)c3ccccc3C2=O)C1 (configuration not stated)	8	5	-11	i	-38	?	-11	5
Cn1ccc2c(/C=C/c3ccc(F)cc3)cc3c(c21)C1CCC3O1 (configuration not stated)	0	-5	.	.	-14	35	.	.

The list continues:
SMILES	MT1-MMP act inh	MT1-MMP act inh RFP	CSC inhib	Rce1 inhib	UUG fidelity	Env fusion inh	PABP polyA inh	eIF4H inh	others
O=C1c2ccccc2NC(c2ccccc2O)N1c1ccc(F)cc1 (configuration not stated)	0	2	-3	i	-14	-30	-12	-5
CCc1ccc(/C=N/n2c(C3CCCCC3)n[nH]c2=S)cc1	0	-4	50	i	-27	4	-2	0
Cc1ccc(-c2nc(-c3ccncc3)no2)cc1	2	-3	2	i	-47	-79	-5	-9
O=C(CNS(=O)(=O)c1cccc2nsnc12)NCCc1ccccc1	-3	0	-11	i	-14	-3	-2	0
CC(=O)NC(CCS(C)(=O)=O)C(=O)Nc1ccccc1C (configuration not stated)	3	6	-3	i	-10	.	-5	-10
O=C1OCC/C1=C\c1ccc2c(c1)OCO2	-1	3	-4	i	-15	-17	7	-12
O=C(COC(=O)c1ccccc1Nc1cccc(C(F)(F)F)c1)NCc1ccco1	3	-3	11	i	-2	-120	9	54*	eIF4H inh retest=55*;PABP polyA inh retest=44
O=C(O)c1cccc(-n2c(-c3cnccn3)n[nH]c2=S)c1	1	7	-8	i	-12	17	23	3
COc1ccc(NC(=O)CN(C)CC(=O)N2CC(=O)Nc3ccccc32)cc1	3	2	-3	.	17	.	.	.
O=C(c1ccccc1)c1ccc(-n2cnnc2)c([N+](=O)[O-])c1	5	-4	-12	.	-23	9	-2	5
O=C(Nc1ncc2c(n1)-c1ccccc1CC2)c1cccs1	6	5	0	i	.	19	-7	-1
O=C(CC(c1ccccc1)c1cc(Cl)ccc1O)N1CCOCC1 (configuration not stated)	-5	-6	10	i	-15	-61	3	-6
CCCN1C(=O)C(O)(CC(=O)c2cccc(OC)c2)c2ccccc21 (configuration not stated)	1	1	4	i	-15	.	-6	-9
CCOC(=O)c1c(-c2ccccc2)oc2cc(Br)c(O)c(C=O)c12	-31	-8	100*	i	-10	-14	10	17
COc1ccc(N2CCN(C(=O)CCn3nnc4ccccc43)CC2)cc1	-2	-2	0	i	15	-5	-3	-6
COc1ccccc1C(=O)Nc1ccon1	-3	-1	0	i	-12	-31	-4	-5
COc1cc(OC)cc(-c2nnc(SCc3c(F)cccc3Cl)o2)c1	-3	-1	21	.	-9	.	-11	-1
O=C(O)c1ccc(S(=O)(=O)c2ccc([N+](=O)[O-])cc2[N+](=O)[O-])cc1	1	2	10	i	-19	3	-6	0
CCOC(=O)c1ccc(CNCc2ccccc2)cc1	6	3	1	i	.	-1	-12	1
COc1cc(N=C2C(=O)N3c4c(cccc42)C(C)=CC3(C)C)cc(OC)c1	-2	3	.	i	-18	.	-5	3

In the list so far, these contain an NH in an aromatic ring:
SMILES	MT1-MMP act inh	MT1-MMP act inh RFP	CSC inhib	Rce1 inhib	UUG fidelity	Env fusion inh	PABP polyA inh	eIF4H inh	others
O=C(c1ccc2[nH]c(=O)c(=O)[nH]c2c1)N1CCc2ccccc2C1	-3	-1	6	i	-12	-1	18	3
CCOC(=O)c1[nH]c(C)c(C(=O)N2CCN(C(=O)OCC)CC2)c1CC	6	-1	-5	i	10	.	-3	-9
CCc1ccc(/C=N/n2c(C3CCCCC3)n[nH]c2=S)cc1	0	-4	50	i	-27	4	-2	0
O=C(O)c1cccc(-n2c(-c3cnccn3)n[nH]c2=S)c1	1	7	-8	i	-12	17	23	3

Further results follow.
SMILES	MT1-MMP act inh	MT1-MMP act inh RFP	CSC inhib	Rce1 inhib	UUG fidelity	Env fusion inh	PABP polyA inh	eIF4H inh	others
Cc1ccc(C(=O)Nc2nc3ccccc3c(=O)s2)cc1	3	1	.	i	-19	-210	-8	4
Cc1cc(Cl)cc(C)c1OCC(=O)N1CCN(c2ncccn2)CC1	-3	-1	-11	.	8	.	.	.
CN(CCOC(=O)c1ccc2c(c1)OCO2)C(C)(C)C	-1	1	8	.	.	1	2	0
Cc1ccc(/C=C/C(=O)O)cc1S(=O)(=O)NCC1CCCO1 (configuration not stated)	1	5	-5	i	.	-2	2	-4
Cc1cc(C)c(NC(=O)CNC(=O)c2ccccc2SCC(=O)N2CCCC2)c(C)c1	0	2	.	.	-14	-10	.	.
COc1ccc(/C(O)=C/C(=O)C(=O)NNC(=O)c2ccccc2)cc1	-17	3	.	i	18	-9	-2	0
Cc1cccc(N2C(=O)/C(=C/c3cccnc3)SC2=S)c1	4	-1	4	.	-20	8	4	-6
N#Cc1ccccc1COc1ccc(/C=C/C(=O)O)cc1	-3	-1	-6	i	.	30	-4	-7
COc1cccc(N2CC(NS(=O)(=O)c3ccc(Cl)cc3)CC2=O)c1 (configuration not stated)	-1	0	-5	i	.	-18	.	.
CCOC(=O)C1CCCN(C(=O)CSCc2ccccc2)C1 (configuration not stated)	-3	0	-8	i	0	26	-2	-9
C=CCNC(=O)N1CCc2[nH]c3ccc(F)cc3c2C1	-2	1	-8	i	9	-6	12	12
O=C(CSc1nnc(-c2cccs2)n1-c1ccccc1)N1CCCC1	2	8	-9	i	-5	-16	0	-24
Cc1cc(Nc2cccc(Cl)c2)nc(-c2ccccc2O)n1	0	2	70	i	-12	-14	-16	-9
CS(=O)(=O)N(CC(=O)NCC1CCCO1)c1ccc(F)c(Cl)c1 (configuration not stated)	1	3	10	i	-7	.	-14	-7
C=CCn1c(SC(C)C(=O)c2c(N)n(C)c(=O)n(C)c2=O)nnc1-c1ccoc1C (configuration not stated)	-4	2	-19	.	-9	7	.	.
O=C(CCN1C(=O)/C(=C/c2ccco2)SC1=S)Nc1ccc(O)cc1C(=O)O	28	28	0	i	-13	-3	94*	101*
Cc1ccc(C23CC4CC(CC(C(=O)NC(C)C(N)=O)(C4)C2)C3)cc1 (configuration not stated)	-2	3	-7	i	-12	-2	1	3
COc1ccc(C2CC(C(F)(F)F)n3nc(C(=O)NCc4cn(C)nc4C)c(Cl)c3N2)cc1 (configuration not stated)	2	-9	35	.	-10	.	0	3
CC(C)C(=O)Nc1ccc(N2CCN(C(=O)c3cccs3)CC2)cc1	-1	2	2	i	-18	8	-6	4
CN(C)c1ccc(NC(=O)CN2CCN(c3ccc(F)cc3)CC2)cc1	1	1	4	i	-9	7	-1	2
CCc1ccc(N(C(=O)CCC(=O)Nc2cc(C)on2)C(C(=O)NC2CCCC2)c2ccco2)cc1 (configuration not stated)	-8	-8	.	i	-13	-99	-11	-10
CCOC(=O)C1=C(C)NC(=O)NC1c1ccc(OCC(N)=O)cc1 (configuration not stated)	5	4	-16	i	-19	.	?	1
Cc1ccc(S(=O)(=O)NC2CC3CCC2C3)cc1 (configuration not stated)	-2	-1	-8	.	13	2	.	.
CCNC(=O)COC(=O)c1sccc1C	5	5	-11	i	-9	-2	-2	-5
COc1ccccc1NS(=O)(=O)c1ccc(NC(=O)c2ccncc2)cc1	4	-13	-8	i	.	24	4	-6
Cc1cccc(-n2nnnc2SC(C)C(=O)NCCC2=CCCCC2)c1 (configuration not stated)	-4	1	-11	.	10	.	-8	-13
O=C(Cn1c(=O)n(-c2ccc(F)cc2)c(=O)c2sccc21)NC1CCCCC1	1	-2	-11	i	-8	-4	1	0
N=c1ncn(C2OC(CO)C(O)C2O)c2nc(Br)[nH]c12 (configuration not stated)	-1	-2	.	.	-3	20	.	.
O=C(NCCCO)/C(=C\c1ccco1)NC(=O)c1ccc(Br)o1	-2	3	2	i	.	13	5	43

Reprinted at random: 4 records from the list
SMILES	MT1-MMP act inh	MT1-MMP act inh RFP	CSC inhib	Rce1 inhib	UUG fidelity	Env fusion inh	PABP polyA inh	eIF4H inh	others
N=c1ncn(C2OC(CO)C(O)C2O)c2nc(Br)[nH]c12 (configuration not stated)	-1	-2	.	.	-3	20	.	.
CCc1ccc(N(C(=O)CCC(=O)Nc2cc(C)on2)C(C(=O)NC2CCCC2)c2ccco2)cc1 (configuration not stated)	-8	-8	.	i	-13	-99	-11	-10
COc1ccccc1NS(=O)(=O)c1ccc(NC(=O)c2ccncc2)cc1	4	-13	-8	i	.	24	4	-6
CCNC(=O)COC(=O)c1sccc1C	5	5	-11	i	-9	-2	-2	-5
